From PubChem
CFTR F508del: total CFTR protein upregulators, primary screen, cell-based, HeLa F508del-CFTR, immunofluorescence, viability (AID 1224863); HeLa F508del-CFTR, immunofluorescence total CFTR, 24 h; by the record results were divided by relative cell number; some inactives read as strong as hits; calls, or highest fold increase where a dose series was run; 10,000 tested, 0.1% active; in the data nearly all actives have a first-pass fold increase above 1.5; a few of its hits are not listed in these tables;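 note: total CFTR protein by anti-CFTR immunofluorescence in fixed cells; first pass at 25 µM or 10 µg/mL by library and series up to twice that; 1 = untreated cells; first-pass hits also needed half or more of the cells alive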
CFTR F508del fold 25 µM: second read-out of CFTR F508del, no call of its own (marks repeat the call); fold increase; measured here: primary screen single dose 25 uM; library dosed in µM
CFTR F508del fold 10 ug/mL: recorded beside CFTR F508del, whose call it bears; fold increase; measured here: primary screen 10 ug/mL
CFTR F508del viability 25 µM: also measured in CFTR F508del; calls as there; viability, %; measured here: primary viability 25 uM; library dosed in µM;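 0% = killed and 100% = untreated cells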
CFTR F508del viability 10 ug/mL: recorded beside CFTR F508del, whose call it bears; viability, %; measured here: primary viability 10 ug/mL;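 0% = killed and 100% = untreated cells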
An asterisk follows results filed as active; i = inactive; . = not tested or not shown; & = joins results of further samples.

SMILES	CFTR F508del	CFTR F508del fold 10 ug/mL	CFTR F508del viability 10 ug/mL	others
O=C1CCC2(C(=O)N3CCc4ccccc43)Sc3ccccc3N12 (centres undefined)	i	1.1	90
COc1ccc(C(=O)C2CCN(Cn3ncn(C)c3=S)CC2)cc1	i	1.1	89
Cc1cc(C(C)(C)C)cc(C)c1CSc1nc(-c2ccc(F)cc2)cs1	i	1	107
CN(CC1COc2ccccc2O1)C(=O)NCc1ccc2c(c1)OCO2 (centres undefined)	i	1	97
O=C(COC(=O)C12CC3CC(CC(Br)(C3)C1)C2)c1ccc(Br)s1	i	1	85
Cc1occc1-c1nnc(SCCCc2nnnn2-c2ccccc2)o1	i	0.97	88
CS(=O)(=O)Cc1ccc(C(=O)OCc2nnsc2Cl)cc1	i	0.98	96
CC1(CCc2ccc(OC(F)F)cc2)NC(=O)N(CN2CCCC2)C1=O (centres undefined)	i	0.87	94
CC(C)C(NS(=O)(=O)c1ccc2c(c1)OCCCO2)c1ccc2c(c1)OCCCO2 (centres undefined)	i	1	103
CC(=O)c1ccc2c(c1)Sc1ccccc1N2CCCN1CCN(CCO)CC1	i	.	.	CFTR F508del fold 25 µM=1.2;CFTR F508del viability 25 µM=88
CCn1c(C2CC2)nn(CN2CCN(Cc3ccc4c(c3)OCO4)CC2)c1=S	i	1.2	100
Cc1sc2nc(SC(C)C(=O)N3CCOCC3)nc(N)c2c1C (centres undefined)	i	0.95	84

Random excerpt: four entries already listed.
SMILES	CFTR F508del	CFTR F508del fold 10 ug/mL	CFTR F508del viability 10 ug/mL	others
CC(=O)c1ccc2c(c1)Sc1ccccc1N2CCCN1CCN(CCO)CC1	i	.	.	CFTR F508del fold 25 µM=1.2;CFTR F508del viability 25 µM=88
CC1(CCc2ccc(OC(F)F)cc2)NC(=O)N(CN2CCCC2)C1=O (centres undefined)	i	0.87	94
CS(=O)(=O)Cc1ccc(C(=O)OCc2nnsc2Cl)cc1	i	0.98	96
COc1ccc(C(=O)C2CCN(Cn3ncn(C)c3=S)CC2)cc1	i	1.1	89

The listing picks up; the four compounds before the break are reprinted first.
SMILES	CFTR F508del	CFTR F508del fold 10 ug/mL	CFTR F508del viability 10 ug/mL	others
CC(C)C(NS(=O)(=O)c1ccc2c(c1)OCCCO2)c1ccc2c(c1)OCCCO2 (centres undefined)	i	1	103
CC(=O)c1ccc2c(c1)Sc1ccccc1N2CCCN1CCN(CCO)CC1	i	.	.	CFTR F508del fold 25 µM=1.2;CFTR F508del viability 25 µM=88
CCn1c(C2CC2)nn(CN2CCN(Cc3ccc4c(c3)OCO4)CC2)c1=S	i	1.2	100
Cc1sc2nc(SC(C)C(=O)N3CCOCC3)nc(N)c2c1C (centres undefined)	i	0.95	84
CCCCCCCCCCOc1cc2c(=O)c(C(=O)OCC)c[nH]c2cc1OCC	i	.	.	CFTR F508del fold 25 µM=0.82;CFTR F508del viability 25 µM=82
CC(Nc1nc2ccccc2o1)c1cc2ccccc2o1 (centres undefined)	i	0.88	72
C[N+]1(C)C2CC(OC(=O)[C@@H](CO)c3ccccc3)CC1C1OC12 (some centres undefined)	i	.	.	CFTR F508del fold 25 µM=1.2;CFTR F508del viability 25 µM=105
Nc1ccccc1-c1nc2ccccc2s1	i	1	90
CC(N)C(c1ccccc1)c1ccccc1 (centres undefined)	i	1.2	106
O=C(/C=C/c1cccs1)N1CCN(C(=O)C2CCOCC2)CC1	i	1	103
Cc1ccc(C(C)NC(=O)CNC(=O)C2CCCC2)o1 (centres undefined)	i	0.98	102
O=C(Nc1ccc2ccccc2n1)C1CC2CCC1C2 (centres undefined)	i	1.1	82
N#C/C(=C/c1cccc(F)c1)c1ccccc1	i	1.1	85
O=C(Cn1nnn(-c2cccs2)c1=O)Nc1nccs1	i	1.2	95
CCN[C@H]1C[C@H](C)S(=O)(=O)c2sc(S(N)(=O)=O)cc21	i	.	.	CFTR F508del fold 25 µM=1&0.98;CFTR F508del viability 25 µM=108&102
COC(=O)c1cc(S(=O)(=O)N2CCCCC2)c(Br)s1	i	0.99	105
N#Cc1ccc(-c2ccc(OCC(=O)c3ccc4c(c3)OCO4)cc2)cc1	i	1.1	86
Fc1ccc(-c2nnn(Cc3nc(-c4ccc(Cl)cc4)no3)n2)cc1	i	1.1	103
CC(C)(CN)C(N)=O	i	1.2	104
O=[N+]([O-])c1cc(S(=O)(=O)N2CCCCC2)ccc1NCC1CCCO1 (centres undefined)	i	1	92
Cn1cnnc1SCc1nc2cc([N+](=O)[O-])ccc2n1-c1ccc(F)cc1	i	0.93	94
COc1ccc([N+](=O)[O-])cc1S(=O)(=O)N(CC1CCOC1)C1CC1 (centres undefined)	i	0.89	94
CN(C)C(=O)C1CCCN1CC(=O)NCc1ccco1 (centres undefined)	i	1.1	106
CCCCN(CC)CC1=C(C(=O)OCC)C(c2ccco2)NC(=O)N1 (centres undefined)	i	0.96	94
CN(N=O)C(=O)N[C@@H]1[C@@H](O)[C@H](O)[C@@H](CO)O[C@@H]1O	i	.	.	CFTR F508del fold 25 µM=0.99&0.98;CFTR F508del viability 25 µM=94&82
Cn1ccnc1COc1ccc(C(=O)O)cc1	i	1	89
CN(CC1CCCCC1)S(=O)(=O)c1ccc(S(C)(=O)=O)cc1	i	0.83	91
CSc1ccc(/C=C2\N=C(c3ccc(N4CCCC4=O)cc3)OC2=O)cc1	i	1.2	99
Nc1cnn(CCO)c1	i	0.96	92
CC(C)(C)c1ccc(OCCSc2nc(N)cc(N)n2)cc1	i	0.97	72
Cc1cc(C(=O)COC(=O)C2(O)CCC2)c(C)n1CCc1ccccc1	i	1	92
COCCOc1ccc(C(F)(F)F)cc1NS(=O)(=O)c1cc(OC)ccc1OC	i	0.97	86
CCCCOc1ccc(-c2nnc(N)o2)cc1	i	1	90
CC(C)S(=O)(=O)C(C)C(=O)O (centres undefined)	i	0.9	99
CO[C@@]1(NC(=O)C(C(=O)O)c2ccc(O)cc2)C(=O)N2C(C(=O)O)=C(CSc3nnnn3C)CO[C@@H]21 (some centres undefined)	i	.	.	CFTR F508del fold 25 µM=1.2;CFTR F508del viability 25 µM=92
O=c1[nH]c2ccccc2n1CCCSc1nnc(NCC2CCCO2)s1 (centres undefined)	i	0.9	101
O=[N+]([O-])c1cc(C(F)(F)F)ccc1NCC(O)c1ccccc1F (centres undefined)	i	0.92	94
COc1ccc(S(=O)(=O)NC2CCc3ccccc32)c([N+](=O)[O-])c1 (centres undefined)	i	0.99	88
Cn1ccnc1SCc1ccccc1[N+](=O)[O-]	i	1.2	96
O=C1c2cccc3cccc(c23)N1CN1CCOC(c2ccc(F)cc2)C1 (centres undefined)	i	0.98	86

The list goes on (2 carried over from the part before).
SMILES	CFTR F508del	CFTR F508del fold 10 ug/mL	CFTR F508del viability 10 ug/mL	others
Cn1ccnc1SCc1ccccc1[N+](=O)[O-]	i	1.2	96
O=C1c2cccc3cccc(c23)N1CN1CCOC(c2ccc(F)cc2)C1 (centres undefined)	i	0.98	86
c1ccc(-n2nnnc2CSc2nc3ccccc3c3nc4ccccc4n23)cc1	i	1	74
O=S(=O)(c1ccc(Br)cc1Cl)N1CCN(Cc2nnc3n2CCCCC3)CC1	i	1	93
CC(C)CN(CC(C)C)CN1C(=O)NC(C)(c2ccccc2)C1=O (centres undefined)	i	1	92
C[n+]1ccccc1/C=N/O	i	.	.	CFTR F508del fold 25 µM=1.2;CFTR F508del viability 25 µM=114
O=C(O)CC1(CC(=O)Nc2nnc(C3CC3)s2)CCCCC1	i	1.1	101
NCC1CCCCO1 (centres undefined)	i	0.93	83
CC(=O)S[C@@H]1CC2=CC(=O)CC[C@]2(C)[C@H]2CC[C@@]3(C)[C@@H](CC[C@@]34CCC(=O)O4)C12 (some centres undefined)	1.3	.	.	CFTR F508del fold 25 µM=1.8;CFTR F508del viability 25 µM=99
O=S(=O)(c1ccc(S(=O)(=O)N2CCCC2c2nc3ccccc3s2)cc1)N1CCCC1 (centres undefined)	i	0.95	91
O=C(OCC(=O)c1ccc(Cl)s1)c1ccc2c(c1)S(=O)(=O)N=C1CCCCCN12	i	1.1	106
CC(=O)N1CCC(NS(=O)(=O)c2ccc(C)s2)CC1	i	1	86
Cc1cc(C2=NNC(=NCC3CCCO3)SC2)c(C)n1CCc1ccccc1 (centres undefined)	i	1	88
S=c1n(CN2CCSCC2)nc(CN2CCCC2)n1-c1ccccc1	i	0.97	94
CC(C)(C)C(N)CN1CCc2ccccc2C1 (centres undefined)	i	1	102
COCCCn1c(SCC(=O)Nc2sc3c(c2C(N)=O)CCC3)n[nH]c1=O	i	1.1	73
CCN(Cc1cccc(C)c1)CN1C(=O)C(=O)c2cc3c(cc21)OCCO3	i	0.97	97
c1ccc(-c2nc(CSc3ncnc4sc5c(c34)CCCC5)cs2)cc1	i	1.1	103
CN(c1ccccc1)c1ccc(C2Nc3ccccc3C(=O)N2C2CC2)cc1 (centres undefined)	i	0.91	106
O=C(N[C@H](CO)[C@H](O)c1ccc([N+](=O)[O-])cc1)C(Cl)Cl	i	.	.	CFTR F508del fold 25 µM=1&1.1;CFTR F508del viability 25 µM=86&85
O=S(=O)(N1CCOCC1)N1CCN(Cc2ccccc2Cl)CC1	i	0.88	89
Cc1c(C)c(C)c(S(=O)(=O)Nc2ccc(S(C)(=O)=O)cc2)c(C)c1C	i	0.97	86
C1CCN(Cc2nc(NCCC34CC5CC(CC(C5)C3)C4)c3c4c(sc3n2)CCC4)CC1	i	1.1	106
CS(=O)(=O)CCC1NC(=O)N(CC(=O)NCCC2=CCCCC2)C1=O (centres undefined)	i	1.1	104
FC(F)(F)c1cccc(CN2CCN(Cn3nc4ccccn4c3=S)CC2)c1	i	0.91	91
FC(F)(F)c1cnc(Nc2ccc3c(c2)OCCO3)c(Cl)c1	i	0.98	81
O=C(c1cc(F)c(Cl)cc1Cl)N1CCN(S(=O)(=O)N2CCCC2)CC1	i	1	102
CC(=O)N1C=Cc2ccccc2C1CC(=O)Nc1cc2c(cc1Cl)OCO2 (centres undefined)	i	0.97	89
O=C(c1oc2ccccc2c1CSCc1ccccc1)N1CCc2ccccc21	i	1	72
CCC(=O)O[C@H](CC(=O)O)C[N+](C)(C)C	i	.	.	CFTR F508del fold 25 µM=1.1;CFTR F508del viability 25 µM=86
Nc1nnc(SCCc2ccncc2)s1	i	1	92
CC(C)(C)OC(=O)N1CCN(Cc2cc3c(cc2O)CCC3)CC1	i	0.99	88
CN(Cc1cc(=O)[nH]c(=O)[nH]1)Cc1ccco1	i	1.1	92
Fc1ccc(NCc2cccnc2)c(F)c1	i	1.1	99
CCn1c(SC2c3ccccc3-c3ccccc32)nnc1-c1ccncc1	i	0.88	70
CSCCC(NC(=O)c1ccco1)C(=O)N1CCN(C(C)=O)CC1 (centres undefined)	i	1.1	97
CCOC(=O)N1CCN(c2ccc(S(=O)(=O)N3CCCC3)cn2)CC1	i	1.1	93
CCOC(=O)c1sc2nc(C)nc(NCCC(=O)OC)c2c1C	i	0.95	106
Cc1noc(N)c1C(=O)OCC(=O)NC(C)c1cccs1 (centres undefined)	i	0.9	91
OC(COCc1ccccc1)CSc1nnc(-c2ccc(F)cc2)n1-c1ccc(F)cc1 (centres undefined)	i	0.88	90
O=C(Cc1csc(-c2cccs2)n1)Nc1ncn[nH]1	i	1	93
O=S(=O)(Nc1cnn(CC2CCCO2)c1)c1ccc2c(c1)OCCO2 (centres undefined)	i	0.94	98
O=C(O)CN(CCN(CC(=O)O)CC(=O)O)CC(=O)O	i	.	.	CFTR F508del fold 25 µM=0.89;CFTR F508del viability 25 µM=83
Cc1cc(CSc2nnc(-c3ccco3)n2C2CCCCC2)no1	i	0.93	93
Cc1noc(C)c1CC(=O)NC(C)C1CCCO1 (centres undefined)	i	1	104
CC1(C)S[C@@H]2[C@H](NC(=O)[C@H](N)c3ccc(O)cc3)C(=O)N2[C@H]1C(=O)O	i	.	.	CFTR F508del fold 25 µM=1.1&1;CFTR F508del viability 25 µM=78&95
C#CCN(C)CCCOc1ccc(Cl)cc1Cl	i	.	.	CFTR F508del fold 25 µM=1;CFTR F508del viability 25 µM=77
CCC(=O)c1ccc(O)cc1	i	.	.	CFTR F508del fold 25 µM=0.98;CFTR F508del viability 25 µM=104
Cc1noc(C)c1S(=O)(=O)NC(C)c1ccccc1 (centres undefined)	i	1.1	90
Cc1ccccc1C(OCCN(C)C)c1ccccc1 (centres undefined)	i	.	.	CFTR F508del fold 25 µM=1&0.97;CFTR F508del viability 25 µM=86&102
Cn1c(=O)c2c(ncn2CC(=O)N2CCCC3CCCCC32)n(C)c1=O (centres undefined)	i	1	94

These rows are one share of the data. The share of hits here may be higher or lower than overall.
